Screening results: PubChem, National Center for Advancing Translational Sciences (NCATS)
D2 PAM: human D2 receptor positive allosteric modulation; P14416; DiscoveRx D2 beta-arrestin cells, luminescence, 90 min; 100% = 57 uM dopamine signal; potentiation, % (test concentration not listed); hit rate 0.23% among 360,000; active = potentiation of 50% or more; inconclusive = 30% to 50%; inactive = 30% or less;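 note: compound concentration not given in the record; tested on top of an EC20 dose of dopamine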
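D2 cells co-treated with compound plus 50 nM dopamine (EC20) for 90 min at 37 deg C to detect potentiation. Beta-arrestin recruitment was read as enzyme-fragment luminescence after 1 h at ambient temperature. Full response was set by 57 uM dopamine.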
TRPV1 PAM: potentiators of human vanilloid receptor 1 (TRPV1) | Q8NER1 | TRPV1-expressing cells, Fluo-8 calcium influx, capsaicin EC20 potentiation; host cell line not named in the record; control for the full effect not named in the record | potentiation, % at 8.33 µM | hit rate 0.02% among 320,000; active means potentiation above 80%; inconclusive means 30% to 80%; inactive means below 30%; note: 0% is about no effect
Target sequence (Q8NER1 whole entry, looked up): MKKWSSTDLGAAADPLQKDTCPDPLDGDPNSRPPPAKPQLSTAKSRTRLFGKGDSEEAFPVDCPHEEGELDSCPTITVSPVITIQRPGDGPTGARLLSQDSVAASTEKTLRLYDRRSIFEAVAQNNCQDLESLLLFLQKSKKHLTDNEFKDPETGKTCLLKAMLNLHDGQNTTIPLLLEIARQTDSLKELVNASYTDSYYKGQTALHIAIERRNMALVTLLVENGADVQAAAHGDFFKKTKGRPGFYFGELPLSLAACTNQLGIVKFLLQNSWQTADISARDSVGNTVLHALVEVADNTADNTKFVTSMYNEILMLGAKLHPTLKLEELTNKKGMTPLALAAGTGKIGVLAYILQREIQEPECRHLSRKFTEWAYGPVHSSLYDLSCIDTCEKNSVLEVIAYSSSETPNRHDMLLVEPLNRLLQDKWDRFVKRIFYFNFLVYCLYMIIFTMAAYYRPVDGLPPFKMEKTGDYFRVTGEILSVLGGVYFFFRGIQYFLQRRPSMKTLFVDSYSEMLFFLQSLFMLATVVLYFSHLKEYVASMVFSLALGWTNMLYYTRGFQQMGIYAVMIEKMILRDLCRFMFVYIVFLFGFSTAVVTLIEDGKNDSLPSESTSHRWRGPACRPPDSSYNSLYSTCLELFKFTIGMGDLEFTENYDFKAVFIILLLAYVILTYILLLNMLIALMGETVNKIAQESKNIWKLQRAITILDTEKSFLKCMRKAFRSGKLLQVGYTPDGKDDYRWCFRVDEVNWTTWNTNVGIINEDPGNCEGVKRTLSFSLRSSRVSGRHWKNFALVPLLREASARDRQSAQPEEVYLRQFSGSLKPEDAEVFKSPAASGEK
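TRPV1-expressing cells were cultured overnight at 35.5C and loaded with Fluo-8 calcium dye for 40 to 90 min at room temperature. After a 10 s baseline, compound was added and calcium influx was read kinetically for 3 min (ex 480/em 520 nm).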
gsp agonist: agonists of gsp mutant (McCune-Albright syndrome); gsp mutant cells, cAMP HTRF, 30 min; control for the full effect not named in the record; Potency, µM (highest dose often 76.9 µM), without a hit: top-dose activation (cAMP increase), usual class: activators; hit rate 0.13% among 340,000; active = well fitted activation curve with a large enough effect; inconclusive = small, poorly fitted or top-dose-only effect, or another doubt; inactive = no such curve, though single readings can be large or run the other way; cell line not stated here;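 note: phosphodiesterase inhibitor Ro 20-1724 added with compounds to block cAMP breakdown; potency is the fitted concentration of half-maximal effect; nearly all actives have a fitted effect of over 60% in size; about a fifth of the inactives were tested at one dose only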
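Cells in DMEM/10% FBS with G418 were pretreated with compounds in DMSO plus […] (300 uM stock) for 30 min at 37C. cAMP was measured by HTRF (cAMP-d2 plus anti-cAMP antibody-K) after 30 min at room temperature.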
Sfp PPTase inh: blocks B. subtilis Sfp PPTase activity. Biochemical Sfp PPTase activity, qHTS. hit rate 3.5% among 310,000. Q9F4F7. Potency, µM, for the others: max response, negative = inhibition, actives largely listed as inhibitors; active = well fitted inhibition curve with a large enough effect; inconclusive = small, poorly fitted or top-dose-only effect, or another doubt; inactive = no such curve, though single readings can be large or run the other way;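 note: the enzyme is Sfp with the accession as filed and its product quenches rhodamine fluorescence; potency is the fitted concentration of half-maximal effect; 0% = enzyme reaction without inhibitor and -100% = no enzyme wells; top concentration of the series not given in the record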
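Fluorescence-quenching assay with 15 nM Sfp, 5 uM rhodamine-CoA and 12.5 uM BHQ-2-labelled ybbR peptide in pH 7.6 Hepes/MgCl2 buffer. Enzyme was pre-incubated with compound for 15 min at room temperature. Rate was taken from the 30-min fluorescence change (525/598 nm).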
Menin-MLL FL inh: menin-MLL binding inhibition, fluorescein peptide. Fluorescence polarization, fluorescein-MLL peptide displacement from menin. FP activity change, % at 61.4 µM. 290,000 tested, under 10 active; inconclusive = falling polarisation curve, or a change in total fluorescence; inactive = total fluorescence flat and polarisation flat or rising; no compound was filed as active; the % refers to the polarisation; negative = inhibition;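 note: % of control where 0% means no effect; inhibitors lower the polarisation; unlabelled MLL peptide was the positive control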
ClpP mod: qHTS Assay for Activators of ClpP; ATP-dependent Clp protease proteolytic subunit (Bacillus subtilis (strain 168)), P80244; purified B. subtilis ClpP, FRET peptide cleavage, 20 min; Potency, µM (titrated, usually from 57.5 µM), inactives show top-dose activity change, negative = active; hit rate 1.9% among 340,000; AID 651965, 2013; active = well fitted falling curve with a large enough effect; inconclusive = small, poorly fitted or top-dose-only effect; inactive = no such curve, though single readings can be large or run the other way; note: potency is the fitted concentration of half-maximal effect; the source files actives as falling curves though it sought activators and does not explain the sign; nearly all actives have a fitted effect of over 65% in size; many hits overshoot -100%
Target sequence (P80244 whole entry, looked up): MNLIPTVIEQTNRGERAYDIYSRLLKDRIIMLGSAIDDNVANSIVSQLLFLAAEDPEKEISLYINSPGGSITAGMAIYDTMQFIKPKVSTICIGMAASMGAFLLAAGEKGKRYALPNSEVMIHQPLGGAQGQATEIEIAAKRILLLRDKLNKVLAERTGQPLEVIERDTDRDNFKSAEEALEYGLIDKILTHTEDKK
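Purified B. subtilis ClpP, 10 microg/mL final in Tris/HCl pH8 with KCl, BSA, glycerol and Tween-20, cleaved an Abz/nitrotyrosine-quenched decapeptide. Fluorescence (ex 320, em 430) was read at 0 and 20 min at room temperature. Delta was normalized to 5.8 microM ADEP and DMSO/no-enzyme controls.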
gsp antag: gsp mutant antagonism; gsp-mutant cells, cAMP HTRF, 30 min; control for the full effect not named in the record; hit rate 0.4% among 340,000; Potency, µM (doses to about 76.9 µM), for inactives: top-dose activity change, negative = inhibition, most hits filed as inhibitors; active = falling curve of any shape with a large fitted effect; inconclusive = falling curve, mostly with a smaller effect; inactive = flat or rising curve; cell line not stated here;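 note: intracellular cAMP measured with PDE inhibitor Ro 20-1724 present during compound exposure; potency is the fitted concentration of half-maximal effect; % is set by controls: 0 for no effect and ±100 for the full control effect; nearly all actives have a fitted effect of over 65% in size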
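Cells, 2000/well, grown 16–24 h in DMEM 10% FBS with 0.5 mg/ml G418, then compounds plus […] (300 uM addition stock), 30 min at 37C. cAMP read by HTRF (cAMP-d2 and anti-cAMP antibody-K in lysis buffer) after 30 min RT.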
* hit, by the source's call; u = inconclusive; x = not tested or not shown; & = joins results of further samples; [ ] = dose if it differs, or a comment. No enrichment for hits; 5.1% or so of the library scored in one or more.

Second line of a record – D2 PAM	TRPV1 PAM	gsp agonist	Sfp PPTase inh	Menin-MLL FL inh	ClpP mod	gsp antag
> O=C(Nc1cccc2c1C(=O)NC2=O)c1cccc(N2C(=O)CCC2=O)c1
→ -3	1	-11%	7%	-1.7	3.5%	10%
> CCN1CCN(C(=O)CN(CC)S(=O)(=O)c2ccc(F)cc2)CC1
→ -19	-2	-71%[inhibitor]	3%	-3.3	-2.7%	-5%
> CCc1ccc2[nH]c(=O)c(CN(CCN(C)C)C(=O)Nc3ccccc3)cc2c1
→ -36	-18	-4%	6%	4.3	-9.3%	9%
> Cc1cccc2cc(C#N)c(SCC(=O)Nc3ccccc3N3CCOCC3)nc12
→ 15	7	0%	-24%	u	-1.1%	5%
> Nc1ccn([C@@H]2O[C@H](CNC(=O)[C@@H](N)CSCc3ccccc3)[C@@H](O)[C@H]2O)c(=O)n1
→ 5	x	-46%[inhibitor]	x	x	9.1%	x
> CS(=O)(=O)N1CCC(NC(=O)Cc2ccccc2)CC1
→ 3	-16	0%	12%	2.5	-2.7%	11%
> Nc1nnc(SCC(=O)NC2CCCc3ccccc32)s1 (stereo unspecified)
→ -2	-6	26%	0%	-0.2	-14%	20%
> Clc1nc2ccccc2cc1/C=N/Nc1nc2ccccc2[nH]1
→ -2	-7	22%	5%	33[activator]	x	-1%
> Cc1cc(C)c(NC(=O)CNC(=O)Cc2ccc(S(=O)(=O)N3CCOCC3)s2)c(C)c1
→ 0	0	-23%	x	x	-0.9%	-2%
> CCC(C)NC(=O)C1CCC(CNS(=O)(=O)c2ccc3c(c2)CC(C)N3C(C)=O)CC1 (stereo unspecified)
→ -5	2	u	9%	-0.8	-0.2%	7%
> Cc1ccc(-c2nc3ccccc3[nH]2)cc1NC(=O)c1sc2ccccc2c1Cl
→ -7	0	-1%	13%	3.7	-20%	13%
> CCC1(CC)Cc2ccccc2-c2nc(CN3CCOCC3)[nH]c(=O)c21
→ -6	-13	5%	5%	3.2	-6.3%	-12%
> Cc1cccc(CSc2nnc(-c3ccccn3)n2N)c1
→ 2	-23	-2%	-15%	-2.8	-0.9%	2%
> COc1ccc(-n2c3c(c(=O)[nH]c2=O)C(NC(=O)c2ccncc2)(C(F)(F)F)C(=O)N3)cc1 (stereo unspecified)
→ -9	-8	u	10%	-3.0	-2.2%	5%
> Cc1ccc(C(=O)NNC(=O)c2ccc(S(=O)(=O)N3CCOCC3)cc2)cc1
→ -6	-21	1%[15.4 µM]	14%	-2.9	0.6%	-6%
> Cc1ccc(NC(=O)COC(=O)c2cccc(C)c2[N+](=O)[O-])cc1S(=O)(=O)N1CCCCC1
→ -1	x	-36%	x	x	-4.5%	-2%
> C/C(N)=C(/C#N)C(=O)COC(=O)c1cc(C)n(-c2ccc(F)cc2)c1C
→ -6&7	7	-10%&10%	17%	6.2	-3.4%	12%&-7%
> C=C1CCN(c2ccc(C(=O)NCc3ccc(OC)cc3)cc2[N+](=O)[O-])CC1
→ -61	x	x	x	x	1.2%	-16%
> COc1ccc(NS(=O)(=O)c2cccc(C(=O)NCC(c3ccco3)N(C)C)c2)cc1 (stereo unspecified)
→ -40	u	25%	x	x	-4.5%	-4%
> CC(CCOC1=NS(=O)(=O)c2ccccc21)NC(=O)C(=O)Nc1ccccc1 (stereo unspecified)
→ -8	-1	-8%	4%	3.8	0.2%	10%
> Cc1cccc2c(SCC(N)=O)nc(-c3ccccc3)nc12
→ 3	27	u	24%	-2.7	0.0%	12%
> COc1cc(NC(=S)N2CCN(C/C=C/c3ccccc3)CC2)cc(OC)c1
→ -15	25	u	5%	3.6	-2.5%	-11%
> CCC(C)NC(=O)c1cc2c(=O)[nH]c3ccc(C)cc3c2s1 (stereo unspecified)
→ -7	13	17%[15.4 µM]	1%	0.6	x	-4%
> Cc1ccc(NC(=O)CSCC#N)cc1Cl
→ -7	-5	0%[15.4 µM]	2%	3.2	-1.2%	9%
> COc1cccc(NC(=O)c2sc(NC(=O)c3ccncc3)nc2C)c1
→ -15	-5	-10%	-1%	-1.0	-0.2%	-10%
> CC(=O)/C(C=Nc1noc(C)c1Br)=C(\C)O
→ -17	19	10%	2%	0.0	-1.5%	0%
> Cc1cc(C)n(CC(=O)NC2CCCc3c2cnn3-c2ccccc2F)n1 (stereo unspecified)
→ -12	u	-31%[inhibitor]	-1%	x	0.0%	-12%
> CCOCCCNC(=S)N1CCCC(c2nc3ccc(C)cc3[nH]2)C1 (stereo unspecified)
→ -36	10	22%	23%	2.0	0.2%	-4%
> CC1(C)COC(=S)N1CCC#N
→ -14	x	0%	x	x	1.7%	4%
> COc1ccc(Nc2nc(N)c([N+](=O)[O-])c(NCc3ccccc3)n2)cc1
→ -5	-8	4%	-2%	-1.6	0.4%	18%
> COC(=O)Cn1cc(S(=O)(=O)NCc2ccc(C)cc2)c2cc([N+](=O)[O-])ccc21
→ -5	1	u	5%	1.9	-2.5%	-4%
> C1CCN=C(Nc2nc3c(s2)CCCC3)CC1
→ -4	13	8%	-3%	2.6	-2.4%	-4%
> CCC(=O)NC(=S)Nc1ccc(NC(=O)COc2ccccc2)cc1
→ -10	-28	-28%	-13%	1.0	3.3%	-14%
> CC(C)(C)OC(=O)N1CCC[C@H]1c1nnc(SCc2ccc(Cl)cc2Cl)o1
→ 3	-19	10%	3%	-0.5	-2.5%	-22%
> O=C(Cn1cnc2c(OCc3ccccc3)ncnc21)NCC1CCCO1 (stereo unspecified)
→ 1	x	x	x	x	0.2%	9%
> Cn1c(=O)c2c(ncn2CC(=O)N(Cc2ccccc2)c2ccccn2)n(C)c1=O
→ -12	18	-1%	11%	-1.0	-8.7%	12%
> Cc1ccsc1C(=O)NCc1ccccc1Cl
→ -15	-3	10%[15.4 µM]	1%	0.8	x	-20%
> Cc1ccccc1C(=O)Nc1ccc(C(=O)N/N=C/c2ccc(O)cc2)cc1
→ 0	11	6%[15.4 µM]	2%	-5.1	0.6%	-15%
> CC(C)c1ccc2c(c1)CCC1C(C)(CN)CCCC21C (stereo unspecified)
→ -3	-9	-23%[15.4 µM]	11µM*	-10	x	5%
> COc1ccc(N(C)C(=O)c2cn(C)c(=O)c3cc(OC)c(OC)cc23)cc1
→ -4	8	-18%	-2%	-6.9	-2.0%	18%
> O=C(CSc1nnc(CNC(=O)c2ccco2)o1)Nc1ccc(F)cc1
→ -5	-1	u	15%	x	0.3%	13%
> CCCn1c(NC(=O)c2ccccc2Br)nc2ccccc21
→ -3	-6	-3%[15.4 µM]	21%	4.6	x	-4%
> O=C(CCNC(=O)N1CCn2c1nc1ccccc12)NCc1ccccc1Cl
→ -4	5	-30%	2%	0.2	-1.3%	0%
> CC(=NCCCn1ccnc1)c1c(-c2ccccc2)[nH]n(-c2nc3ccccc3s2)c1=O
→ -24	-11	2%	1%	1.3	-2.3%	-8%
> Cc1cc(C2(c3ccc(O)c(C)c3)OC(=O)c3ccccc32)ccc1O
→ 11	6	-24%	-4%	0.7	-0.4%	3%
> C=CCOn1c(=O)c(C)[n+]([O-])c2ccccc21
→ 6	-17	-37%	-4%	5.2	-19%	9%
> Cc1noc(C)c1S(=O)(=O)Nc1cccc(CO)c1
→ -5	-3	u	19%	x	-2.3%	9%
> CCCN1C(=O)/C(=c2\sc3nc(=O)c(Cc4ccc(C)cc4)nn3c2=O)c2ccccc21
→ -9	1	-4%[15.4 µM]	20µM*	-1.3	x	4%
> O=C(COC(=O)c1ccncc1)Nc1cc(S(=O)(=O)N2CCOCC2)ccc1Cl
→ -2	4	2%	x	x	0.5%	-17%
> Cc1ccc(Nc2nc(-c3ccncc3)cs2)cc1
→ -15	-3	13%[15.4 µM]	2%	-4.5	x	-1%
> Cc1ccc(C(=O)OCCn2cc(C#N)c(=O)[nH]c2=O)cc1
→ -6	0	15%	21%	0.9	x	-3%
> CCN1C(=O)[C@H]2[C@@H](c3ccc(-c4ccc(OC)cc4)c(OC)c3)N[C@@](Cc3ccccc3)(C(=O)OC)[C@H]2C1=O
→ -17	x	x	x	x	25µM*	-20%
> Cn1c(SCc2cccnc2)nnc1-c1c[nH]c2ccccc12
→ -2	6	6%	8%	3.4	-0.6%	-6%
> CCc1nnc2cccc(Cl)n12
→ -10	1	-9%	-20%	0.0	2.6%	3%
> CCN(C(=O)COC(=O)CCc1ccccc1)c1ccccc1
→ -9	20	0%[15.4 µM]	-18%	0.4	x	6%
> Cn1c(=O)n(C)c2cc([N+](=O)[O-])c(N3CCN(C(=O)c4cccc(F)c4)CC3)cc21
→ -15	0	-15%[15.4 µM]	8%	4.1	x	-22%
> COc1ccc2c(c1)C(=O)N1[C@H]3c4cc(Cl)ccc4OC[C@@H]3[C@H](c3ccccc3)[C@]1(C)C(=O)N2
→ -3	x	22%	x	x	18µM*	-3%
> CCOCCCNC(=O)CN1C(=O)C(CC)Oc2ccccc21 (stereo unspecified)
→ -12	-3	-6%	8%	3.0	-1.5%	-2%
> CCOc1ccccc1NC(=O)C1CCCCN1S(=O)(=O)c1ccccc1 (stereo unspecified)
→ -23	-18	3%[15.4 µM]	x	x	1.4%	-17%
> CC(=O)N1CCN=C1SCc1ccccc1
→ 0	7	-4%	7%	-1.8	1.3%	10%

Later entries
Second line of a record – D2 PAM	TRPV1 PAM	gsp agonist	Sfp PPTase inh	Menin-MLL FL inh	ClpP mod	gsp antag
> CC(C)c1ccc(NC(=O)c2n[nH]c(=O)c3ccccc23)cc1
→ 0	-5	-25%	18%	-2.8	x	8%
> N#Cc1c(NC(=O)C2CC2)sc2c1CCCCC2
→ -11	-5	1%	u	0.1	1.5%	-3%
> C#CCOCCOCCOCCNc1nc(N2CCN(C(=O)[C@H](CC(N)=O)n3cc(C(N)[C@@H](C)CC)nn3)CC2)nc(N2CCN(C(=O)[C@H](CCC(=O)O)n3cc([C@@H](N)CCCCN)nn3)CC2)n1 (stereo partly specified)
→ -9	x	x	x	x	0.9%	6%
> COc1ccccc1NC(=O)C(=O)NCc1ccccc1Cl
→ 9	-20	9%	18%	4.9	-1.4%	-4%
